From PubChem
Mtb hypoxia inh – PubChem AID 1159583. M. tuberculosis hypoxia-regulated fluorescent reporter, fluorescence. fluorescence inhibition, % (test concentration not listed). actives 0.1% (n = 300,000);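 active = 35 to 45% if threefold the growth effect, above 45% if 1.5-fold the growth effect; inactive = the rest, general growth blockers included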;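 note: wells of about 50 µL received 100 nL stock; 0% = vehicle wells and 100% = reference inhibitor wells; whole bacteria with a GFP reporter of the hypoxia response; strong numbers were not always called active; many hits fall short of the cut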
Bead autofluor – counter-screen for toxin protease inhibitors: compound fluorescence | fluorescence intensity (test concentration not listed) | actives 3.1% (n = 360,000) | compound autofluorescence counterscreen, microsphere flow cytometry; active compounds read high;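 active = at least 3 SD above the mean of all compounds, about 16000 in these data; inconclusive = too few beads counted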;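 note: 100 nL of 1 mM stock went into each well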
ugtP null kill – growth inhibition of ugtP-null S. aureus, primary screen, RN4220 ugtP deletion, OD600; 16 h; some inactives read as strong as hits; growth inhibition, % (test concentration not listed); actives 0.54% (n = 330,000); AID 1259309, 2017;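 active = z-score under -3 and OD600 up to 0.15 on both plates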;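 note: plate controls were untreated wells for no effect and antibiotic for full effect; wells of about 80 µL received 100 nL stock; the first replicate is given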
RN4220 kill – growth inhibition of S. aureus RN4220, primary screen, OD600. 16 h. inhibition, % (test concentration not listed). actives 0.33% (n = 330,000). AID 1259311, 2017;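 active = z-score of -3 or lower and OD600 up to 0.18 on both plates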;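 note: plate controls were untreated cells for no effect and reference antibiotic for full effect; stock transfer was 100 nL into about 80 µL; one replicate is shown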
BJeLR viability – MLPCN primary cell-based screen for lethality selective to Ras in HRASV12 cells; BJeLR (HRASV12) viability, CellTiter-Glo ATP luminescence, 48 h; reference of the scale not given here; inhibition, % (test concentration not listed); actives 0.17% (n = 300,000); AID 1554, 2009;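 active = replicate mean above 50%; inconclusive = above 50% but judged a plate artefact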;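 note: 50 nL library stock added to about 25 µL; numbers are from one replicate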
PrP 5UTR inh – inhibition of PrP 5' UTR reporter expression; actives 0.35% (n = 340,000); cell-based PrP 5' UTR mRNA reporter, plate reader; inhibition, % (test concentration not listed);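 active = every replicate at 50% or more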;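 note: 0 = median of the neutral control wells; tested in H4 reporter cells; numbers are from one replicate; inactives centre near -14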
Mtb hypoxia inh growth – second read-out of Mtb hypoxia inh, no call of its own (marks repeat the call); growth inhibition, %; measured here: M. tuberculosis growth (absorbance);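 0% = vehicle and 100% = reference antibiotic; read after six days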
The depositor's hits bear a star; ? = inconclusive; . = not tested or not shown.

Start of the listing, in advance, three compounds:
SMILES	Mtb hypoxia inh	Mtb hypoxia inh growth	Bead autofluor	ugtP null kill	RN4220 kill	BJeLR viability	PrP 5UTR inh
Nc1cc2nn(-c3ccccc3)nc2cc1Cl	7	8	3838	8	2.4	-3	-167
O=Cc1ccc(-c2ccccc2OC(F)(F)F)o1	.	.	2267	-2	2.0	2	-13
CCOC(=O)c1ccc(Oc2c(C)oc3c(CN4CCN(C)CC4)c(O)ccc3c2=O)cc1	5	9	2587	-14	-0.8	8	-5

The whole of this part, previewed entries included:
SMILES	Mtb hypoxia inh	Mtb hypoxia inh growth	Bead autofluor	ugtP null kill	RN4220 kill	BJeLR viability	PrP 5UTR inh
Nc1cc2nn(-c3ccccc3)nc2cc1Cl	7	8	3838	8	2.4	-3	-167
O=Cc1ccc(-c2ccccc2OC(F)(F)F)o1	.	.	2267	-2	2.0	2	-13
CCOC(=O)c1ccc(Oc2c(C)oc3c(CN4CCN(C)CC4)c(O)ccc3c2=O)cc1	5	9	2587	-14	-0.8	8	-5
c1csc(-c2nnc3ccccn23)c1	-4	10	18537*	0	2.8	-1	-23
NS(=O)(=O)c1ccc(NC(=S)NC2CC2)cc1	3	12	4855	14	3.1	-2	-28
CC(C)c1ccc(OCC(=O)NCc2ccco2)cc1	4	-2	3359	15	7.2	6	-12
Cc1ccc(NC(=O)CCn2c(=O)[nH]c3ccsc3c2=O)cc1C	1	2	4426	5	-0.8	0	-23
Cc1cccc(-n2nnc(C(=O)NC3CCCc4ccccc43)c2N)c1 (stereo not drawn)	13	10	3827	-1	3.9	-2	-17
O=C(NCCNCCO)C1(C(F)(F)F)CC(=CCc2ccccc2)CCCO1 (stereo not drawn)	5	3	.	3	4.2	.	.
CCOC(=O)/C=C/C(=O)Nc1nccs1	13	12	7471	-5	7.6	14	-26
COc1ccccc1NC(=O)c1ccc(S(=O)(=O)N(C)c2ccccc2OC)cc1	1	-4	.	0	-0.9	.	-6
O=C(NCCc1ccccc1)C1CCN(C(=O)c2ccc([N+](=O)[O-])cc2)CC1	7	9	2065	14	1.5	0	-14
CN(C)S(=O)(=O)c1cc(NC(=O)COC(=O)CCSc2ccc(Cl)cc2)ccc1Cl	2	0	3642	7	5.4	1	-8
NS(=O)(=O)c1ccc(N2N=C(c3ccccc3)CC2c2ccc(F)cc2)cc1 (stereo not drawn)	-11	11	2863	18	27	-6	-29
Cc1ccc(CN(Cc2cccnc2)C(=S)Nc2cccc(Cl)c2C)cc1	11	4	3964	2	4.9	-6	-21
O=C(CSc1nnc(-c2ccc(C(F)(F)F)cn2)s1)c1ccccc1	3	-11	4924	-1	7.8	-9	-26
COc1cc2cc(CCCOC(=O)CCCC(=O)O)oc(=O)c2cc1OC	10	5	3899	1	7.6	.	-15
Cc1ccc(NC(=O)C(=O)NCC2CCCO2)cc1 (stereo not drawn)	10	10	2484	8	3.4	-11	-47
O=Cc1ccccc1OS(=O)(=O)c1ccccc1	2	5	2126	5	15	2	-5
CCN(CC(=O)NCc1ccc(Cl)cc1)C(=O)C(C)Sc1ccccc1 (stereo not drawn)	1	4	5654	-4	-0.7	-3	-6
CC1=NN(c2ccccc2)C(=O)C1C(=O)c1cc([N+](=O)[O-])cc([N+](=O)[O-])c1 (stereo not drawn)	16	7	4080	2	4.6	-1	1
COc1ccc(Cn2cc(F)c(=O)n(CCC(C)C)c2=O)cc1[N+](=O)[O-]	-2	1	?	-1	-0.8	4	4
COc1ccc(NC(=O)CN2CCCCCC2)cc1OC	-5	2	6615	9	1.1	-1	-13
Clc1ccc(-n2nnnc2CN2CCCCC2)cc1Cl	10	10	9435	-6	0.3	7	-23
COc1ccc([N+](=O)[O-])cc1-c1nc2ccccc2nc1-c1ccccc1	-9	-10	4043	10	0.5	-1	-7
COC(=O)CCc1nc2ccccc2[nH]c1=O	3	5	8131	-4	0.4	2	-27
O=C(CSc1nc(O)cc(=O)[nH]1)Nc1ccc2c(c1)CCC2	1	2	8498	-4	3.3	-7	1
Cc1ccc(-n2c(Cl)c(Cl)[nH]c(=O)c2=O)cc1	3	6	2154	-14	4.7	6	-35
CC#CCN1c2ccccc2[C@]23C[C@@H](C(=O)OC)N(C(=O)c4cc(C)oc4C)C2=NC(C(=O)OC)=C(C(=O)OC)[C@H]13	.	.	3897	.	.	-16	-26
Cc1ccc(S(=O)(=O)CC(=O)Nc2nccs2)cc1	9	1	6502	-3	3.6	1	-22
COc1ccc(NC(=S)NN=Cc2ccc(F)c(F)c2)cc1	2	-3	.	4	19	.	.
CCOc1ccccc1OCCCC(=O)N1CCN(S(=O)(=O)c2ccc(C)cc2C)CC1	6	1	8781	-1	3.2	.	-5
C=CCNC(=S)N1CCN(c2ncc(C(F)(F)F)cc2Cl)CC1	15	10	4388	15	-0.1	16	11
CC(C)(CO)CNC(=O)CCc1nnc(Cc2ccc(-c3ccccc3)cc2)o1	3	11	3540	2	13	-14	-8
Cc1ccc(NC(=O)c2ccc3c(c2)NC(=O)CS3)nc1	12	5	?	-2	7.9	1	-40
Cc1cc(C(=O)NCCN2CCCCC2C)n(-c2ccccc2)n1 (stereo not drawn)	8	8	7490	6	0.1	5	0
COc1cccc(-c2cc(C(F)(F)F)nc(-n3cccn3)n2)c1	11	6	3817	1	3.9	-11	-13
Cc1cccc(/C=C/c2nc3ccccc3c(=O)n2Cc2ccccc2)c1	.	.	2039	.	.	-5	-15
COc1ccc(-c2cc(C(=O)Nc3cccnc3)no2)cc1OC	4	3	4923	-3	1.3	-2	-56
Clc1ccccc1Cn1nnc2c(N3CCCC3)ncnc21	3	3	23668*	14	3.2	-4	2
NC1=C([N+](=O)[O-])C(c2ccc(F)cc2)C2=C(CCCC2=O)O1 (stereo not drawn)	2	2	2073	3	6.7	2	-18
CCc1nn2c(=O)c(S(=O)(=O)Nc3ccc(C(C)C)cc3)c(C)nc2s1	6	5	5319	18	11	.	-3
CC(C)CN(C(=O)COC(=O)COc1ccc2c(c1)CCC2)c1c(N)n(Cc2ccccc2)c(=O)[nH]c1=O	-12	-4	6259	0	4.5	-9	-5
CCn1c(SCC(=O)Nc2nonc2C)nnc1-c1ccco1	9	5	3231	8	6.7	-3	6
COc1ccc(/C=N/NC(=O)c2nc(-c3ccccc3)n(-c3ccccc3)n2)cc1OC	.	.	10401	.	.	-7	-13

Part of the list above in order of molar mass, low to high:
SMILES	Mtb hypoxia inh	Mtb hypoxia inh growth	Bead autofluor	ugtP null kill	RN4220 kill	BJeLR viability	PrP 5UTR inh
NC1=C([N+](=O)[O-])C(c2ccc(F)cc2)C2=C(CCCC2=O)O1 (stereo not drawn)	2	2	2073	3	6.7	2	-18
Clc1ccccc1Cn1nnc2c(N3CCCC3)ncnc21	3	3	23668*	14	3.2	-4	2
COc1cccc(-c2cc(C(F)(F)F)nc(-n3cccn3)n2)c1	11	6	3817	1	3.9	-11	-13
Cc1cc(C(=O)NCCN2CCCCC2C)n(-c2ccccc2)n1 (stereo not drawn)	8	8	7490	6	0.1	5	0
C=CCNC(=S)N1CCN(c2ncc(C(F)(F)F)cc2Cl)CC1	15	10	4388	15	-0.1	16	11

(continued)
SMILES	Mtb hypoxia inh	Mtb hypoxia inh growth	Bead autofluor	ugtP null kill	RN4220 kill	BJeLR viability	PrP 5UTR inh
COc1ccc(S(=O)(=O)N2CCOCC2)cc1NC(=O)Cc1c(F)cccc1Cl	0	4	8974	3	15	.	-2
CN1CCN(c2ccc(NC(=O)CSc3ccccc3)cc2F)CC1	6	12	5926	11	5.5	5	-46
CCn1cc(Cl)c(C(=O)NNC(=O)CCn2ccc([N+](=O)[O-])n2)n1	9	5	5404	8	3.4	5	-26
Cc1sc2ncnc(N/N=C/c3cccc(O)c3)c2c1C	.	.	2515	.	.	4	-77
CC(C)Oc1ccc(S(=O)(=O)N2CCOCC2)cc1NC(=O)CN1C(=O)c2ccccc2C1=O	6	8	5606	8	3.3	.	-20
COc1cccc(CNC(=O)CSC(=S)N2CCCC2)c1	4	-3	.	10	4.6	5	-4
CCN1C(=O)[C@H]2[C@@H](c3ccc(C)cc3)N3C(=O)N(c4ccc(C)cc4)C(=O)[C@@]3(CC)[C@H]2C1=O	.	.	3954	.	.	-5	-39
O=C(COC(=O)/C=C/c1cccs1)Nc1ccc2ccccc2c1	1	-6	2031	-9	-1.3	-5	-10
COC(=O)c1sc2nc(C)nc(SCC(=O)C(C)(C)C)c2c1C	-2	0	4318	19	9.3	6	-32
COc1cc(/C=C/C(=O)OCC(=O)NCc2ccco2)ccc1O	.	.	?	.	.	13	-2
O=[N+]([O-])c1ccc(/C=N/Nc2nc(NCc3ccccc3)nc(N3CCOCC3)n2)cc1	.	.	4421	.	.	2	-31
CCN(Cc1ccncc1)C(=O)CCc1nnc(CCc2ccccc2OC)o1	-10	-1	2492	0	-1.4	2	-14
COc1ccc2cc3cc(C(=O)N4CC(C)CC(C)C4)oc3nc2c1 (stereo not drawn)	18	13	6397	-4	0.4	-6	-35
O=C(NC(=S)Nc1ccccn1)c1cncc(Br)c1	-8	-1	2411	-14	2.1	4	-31
CN(Cc1cccnc1)Cc1cn[nH]c1-c1ccc(-c2ccccc2)cc1	-7	8	4238	10	6.8	2	-20
CCOC(=O)Cn1c(=O)n(Cc2ccccc2)c(=O)c2cccnc21	3	-1	3876	1	1.4	5	-13
CCC(C(=O)OC(C)C)c1ccc2ccccc2c1 (stereo not drawn)	8	4	4018	5	5.0	.	-49
COc1ccc(NC(=O)COc2ccc(C=Nn3c(C)nnc3C)cc2OC)cc1	0	4	.	-6	0.2	.	.
CN(C)S(=O)(=O)c1ccc(C(=O)Nc2nc3ccccc3[nH]2)cc1	1	0	4152	2	1.9	0	-84
COc1ccc(-c2cc(C(=O)NCCCN3CCCC3=O)c3ccccc3n2)cc1	-5	-5	?	9	1.5	-1	0
Nc1cc2c(cc1C(=O)c1ccccc1)OCCO2	.	.	3575	-2	3.1	10	-14
COCCCN(C(=S)Nc1c(C)cc(C)cc1C)C(C)c1ccncc1 (stereo not drawn)	10	10	2374	2	4.0	4	-25
CCCN(CC(=O)Nc1cc(Cl)ccc1Cl)C(=O)c1ccc2n[nH]nc2c1	.	.	2856	9	4.0	.	11
Cc1nn(C)c(C)c1C=NNC(=O)c1csc2ccccc12	17	11	.	17	2.1	.	.
CC(=O)Oc1ccc2c(=O)c(N3C(=O)c4ccccc4C3=O)c(C)oc2c1C	-6	-5	3864	3	3.4	0	-10
CCCn1c(Nc2cccc(OC)c2)nc2ccccc21	3	9	3116	16	5.1	-1	-14
COc1ccccc1N1CCN(C(=O)CSc2nnc3c4ccccc4n(CC(=O)O)c3n2)CC1	7	-4	2605	-2	6.9	1	-22
CN(Cc1cnn(C)c1)S(=O)(=O)c1cccc([N+](=O)[O-])c1	16	5	4232	10	5.3	1	-16
CC(=O)c1cccc(NC(=O)C2CCN(C(=O)c3ccccc3Cl)CC2)c1	5	-6	5076	3	0.7	11	-15
N#CCc1nnc2n1-c1ccccc1CCC2	3	-2	4355	3	3.2	11	-14
O=C(Nc1ccc(C(=O)O)cc1)/C(=C\C=C\c1ccccc1)NC(=O)c1ccccc1Cl	4	0	5819	-1	1.8	5	-2
c1ccc(Nc2nnc(-c3cccnc3)s2)cc1	11	5	3616	1	1.2	8	-18
O=C(Cn1nnc2ccccc2c1=O)NCCc1ccccc1	6	2	8801	9	5.4	-3	-15
COCCNC(=S)N(CCc1c(C)[nH]c2ccc(Cl)cc12)Cc1cccnc1	-5	0	3807	-12	8.6	-15	-13
N#CC1=C(N)OC2=C(C(=O)CCC2)C12C(=O)N1CCCc3cccc2c31 (stereo not drawn)	.	.	2585	-18	22	5	-32
O=C(NNC(=O)c1ccc([N+](=O)[O-])cc1)NC1CCCCC1	1	3	5560	5	0.7	-4	-22
Cc1cnc(C(=O)N2CCCC(N3CCN(c4ccccc4F)CC3)C2)cn1 (stereo not drawn)	6	2	4520	12	6.3	-1	-10
COc1cc(SC)ccc1C(=O)Nc1ccc2ncccc2c1	3	14	3708	7	3.0	12	-53
CC1CN(CC(=O)c2c(N)n(Cc3ccccc3)c(=O)n(C)c2=O)CC(C)O1 (stereo not drawn)	4	4	12204	5	3.4	2	.
Nc1c(C(=O)c2ccccc2)sc2c1c(=O)[nH]c(=O)n2-c1ccccc1	-11	-18	2581	11	-8.2	-5	-12
CN1CCN(C(=O)c2cnn(-c3ccccc3)c2NC(=O)c2ccccc2Br)CC1	-13	-2	3797	-2	5.6	10	-32

The order is random, and some 4% of all compounds hit somewhere here.
